Screening results as filed in PubChem BioAssay.
GLA inh pH 4.5 – qHTS Assay for Inhibitors of Human alpha-Galactosidase at pH 4.5 | Alpha-galactosidase A (Homo sapiens), P06280 | purified enzyme, 4-MU-alpha-Gal fluorescence, pH 4.5 | activity change, negative = inhibition, % at 105 µM | 230,000 tested, under 10 active; inconclusive = small, poorly fitted or top-dose-only inhibition, or a rising curve; inactive = flat fitted curve, though single readings scatter; no compound was filed as active;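 note: 0% = full activity with enzyme and -100% = basal without enzyme; dose as in the result columns while the protocol names 77 µM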
Target sequence (P06280 whole entry, looked up): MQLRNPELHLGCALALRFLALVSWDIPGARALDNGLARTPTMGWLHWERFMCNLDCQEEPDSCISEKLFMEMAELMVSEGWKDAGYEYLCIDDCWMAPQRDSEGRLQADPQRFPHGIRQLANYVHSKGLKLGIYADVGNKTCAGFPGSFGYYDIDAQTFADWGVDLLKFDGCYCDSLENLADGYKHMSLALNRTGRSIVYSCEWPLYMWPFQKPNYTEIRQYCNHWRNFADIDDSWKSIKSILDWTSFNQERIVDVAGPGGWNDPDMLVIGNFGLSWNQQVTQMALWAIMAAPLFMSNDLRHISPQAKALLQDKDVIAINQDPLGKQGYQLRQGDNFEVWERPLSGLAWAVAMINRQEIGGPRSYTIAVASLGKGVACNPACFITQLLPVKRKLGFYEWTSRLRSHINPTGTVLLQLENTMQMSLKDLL
miR-21 FLuc – qHTS Assay for Modulators of miRNAs and/orActivators of miR-21; HeLa miR-21 FLuc reporter, luciferase, 48 h; Potency, µM (top dose mostly 38.3 µM), for inactives: at the highest dose reporter change, positive = more light; 340,000 tested, under 10 active; AID 2288, 2010; active = well fitted rising curve with a large enough effect; inconclusive = small, poorly fitted or top-dose-only effect; inactive = no such curve, though single readings can be large or run the other way;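 note: % of control where 0% means no effect; miR-21 action dims this reporter so a rising signal means less miR-21 action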
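Luminescence from a firefly luciferase reporter carrying a miR-21 binding site downstream, stably expressed under a CMV promoter in HeLa cells that make miR-21 endogenously, reports miRNA modulation after 48 h compound exposure up to approximately 40uM final.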
Rango dissoc inh – qHTS Assay for Inhibitors of RanGTP induced Rango (Ran-regulated importin-beta cargo) - Importin beta complex dissociation; Biochemical FRET Rango-importin beta, RanGTP-induced dissociation; Potency, µM (highest dose often 46.1 µM), inactives show at the top dose activity change, negative = inhibition; actives 0.071% (n = 340,000); active means falling FRET ratio curve, often poorly fitted, with flat reads before Ran was added; inconclusive means other falling curves, or compound fluorescence or quenching; inactive means flat or rising ratio curve;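 note: potency is the fitted concentration of half-maximal effect; % of control where 0% means no effect; nearly all actives have a fitted effect of over 45% in size; -100% = wells without RanGTP and RCC1; the record marks most hits as doubtful in a second field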
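FRET read at 45 min, room temperature: inhibitors block the CFP/YFP signal rise when RanGTP (0.6 uM Ran, 2 mM GTP, 0.2 uM RCC1) frees Rango (0.1 uM) from importin beta (0.25 uM). Pre-read after 5 min compound exposure flags interference.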
Rango-impB inh – qHTS Assay for Inhibitors of Rango (Ran-regulated importin-beta cargo) - Importin beta complex formation; Potency, µM (doses to about 92.2 µM), for the others: at the highest dose inhibition of complex formation; actives 0.031% (n = 340,000); AID 540263, 2011; Rango CFP/YFP FRET sensor + importin beta, 45 min; Importin subunit beta-1 (Homo sapiens), Q14974; active = rising FRET ratio curve, often small or poorly fitted; inconclusive = mostly compound fluorescence or quenching in the first reads; inactive = flat curves in all reads;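 note: potency is the fitted concentration of half-maximal effect; 0% = DMSO wells and 100% = buffer wells lacking importin beta; nearly all actives have a fitted effect of over 15% in size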
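FRET biosensor Rango (snurportin 1 IBB between N-terminal EYFP and C-terminal Cerulean), 50 nM in PBS/1 mM DTT/0.02% Tween-20/0.1% BSA, preincubated 5 min RT with compound; 0.125 microM importin beta added, 45 min RT, CFP/YFP FRET ratio read.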
Numbers without * were called inactive; & = joins results of further samples.

What do the screens show for `Nc1ccc2nc(CCCCCCCCc3nc4ccc(N)cc4[nH]3)[nH]c2c1`?
GLA inh pH 4.5: -7; miR-21 FLuc: 3%; Rango dissoc inh: -11%; Rango-impB inh: -3.4%

How did COCCNc1ncnc2nc[nH]c12 do in these assays?
GLA inh pH 4.5: 4; miR-21 FLuc: 0%; Rango dissoc inh: -10%; Rango-impB inh: -3.0%

What do the screens show for `NS(=O)(=O)c1cccc(NC(=O)/C=C/c2cccs2)c1`?
GLA inh pH 4.5: 1; miR-21 FLuc: -28%; Rango dissoc inh: 2%; Rango-impB inh: -8.8%

How did Cn1cnc([N+](=O)[O-])c1Sc1n[nH]c(N)n1 do in these assays?
GLA inh pH 4.5: -3; miR-21 FLuc: -3%; Rango dissoc inh: -10%; Rango-impB inh: 2.4%

How did CC(=O)N(C)c1ccc(NC(=O)Nc2cccc3ccccc23)cc1 do in these assays?
miR-21 FLuc: -35%; Rango dissoc inh: 15%; Rango-impB inh: 3.7%

Results for Cc1ccc(CN2CCNC(=O)C2CC(=O)O)cc1 (stereo not drawn) ?
GLA inh pH 4.5: 9; miR-21 FLuc: 0%; Rango dissoc inh: -6%; Rango-impB inh: -0.9%

What do the screens show for `O=C(CCCN1C(=O)c2cccc3cccc(c23)C1=O)NCc1cccs1`?
GLA inh pH 4.5: -14; miR-21 FLuc: -5%; Rango dissoc inh: -7%; Rango-impB inh: -2.7%

What do the screens show for `CC(=O)c1ccc(OCCCOc2cccc3cccnc23)cc1`?
miR-21 FLuc: -11%; Rango dissoc inh: 6%; Rango-impB inh: -2.4%

Results for Cc1cccc(NS(=O)(=O)c2coc(C(N)=O)c2)c1C ?
miR-21 FLuc: -1%; Rango dissoc inh: -2%; Rango-impB inh: -2.9%

What do the screens show for `CCc1nc(N2CCN(Cc3ccc4c(c3)OCO4)CC2)c2oc3ccccc3c2n1`?
GLA inh pH 4.5: 0; miR-21 FLuc: 21%; Rango dissoc inh: -2%; Rango-impB inh: 0.6%

What do the screens show for `CCOC(=O)c1sc(NC(=O)Nc2ccc(Cl)cc2)nc1C`?
GLA inh pH 4.5: -8; miR-21 FLuc: -41%; Rango dissoc inh: 1%; Rango-impB inh: -2.6%

What do the screens show for `CCOc1ccccc1NC(=O)CCS(=O)(=O)c1ccc(OC)cc1`?
GLA inh pH 4.5: 2; miR-21 FLuc: 0%&2%; Rango dissoc inh: 18%; Rango-impB inh: 1.4%

What do the screens show for `Cn1c(SCC(=O)Nc2ccc3[nH]c(=O)[nH]c3c2)nnc1-c1ccccc1`?
miR-21 FLuc: 0%; Rango dissoc inh: 16%; Rango-impB inh: 3.5%

Results for N#CC1=C(N)Oc2cc(N)ccc2C1c1cc(Br)cs1 (stereo not drawn) ?
miR-21 FLuc: 25%; Rango dissoc inh: inconclusive; Rango-impB inh: inconclusive

What do the screens show for `CCN(CC)C(=O)CSc1nc2ccc(NC(=O)CSc3nnc(COc4ccccc4C)n3C)cc2s1`?
GLA inh pH 4.5: 1; miR-21 FLuc: 12%; Rango dissoc inh: 0%; Rango-impB inh: -3.1%

What do the screens show for `Cc1nc2ccc(NC(=O)N3CCOCC3)cc2nc1C`?
GLA inh pH 4.5: 2; miR-21 FLuc: 3%; Rango dissoc inh: -6%; Rango-impB inh: 0.5%

What do the screens show for `COc1cccc(C(=O)N2CCN(C(=O)c3cccs3)CC2)c1OC`?
GLA inh pH 4.5: 3; miR-21 FLuc: 0%; Rango dissoc inh: -3%; Rango-impB inh: 1.8%

Results for Cc1cc(C=O)c(C)n1-c1ccc(N2CCOCC2)cc1 ?
GLA inh pH 4.5: -9; miR-21 FLuc: 0%; Rango dissoc inh: 4%; Rango-impB inh: -2.1%

Results for CN(C)C(CNC(=O)CCCN1C(=O)c2cccc3cccc(c23)C1=O)c1ccccc1 (stereo not drawn) ?
miR-21 FLuc: 0%; Rango dissoc inh: 11%; Rango-impB inh: -0.2%

Results for CCN(CC)S(=O)(=O)c1ccc(Cl)c(C(=O)N2CCc3ccccc32)c1 ?
GLA inh pH 4.5: 0; miR-21 FLuc: 16%; Rango dissoc inh: -9%; Rango-impB inh: -3.8%

What do the screens show for `COc1ccccc1CNC(=O)C1CCN(Cc2nc(-c3cccc(Cl)c3)oc2C)CC1`?
GLA inh pH 4.5: -8; miR-21 FLuc: -2%; Rango dissoc inh: 5%; Rango-impB inh: 7.2%

What do the screens show for `COC(=O)c1ccc(CNC(=O)c2ccc3c(c2)S(=O)(=O)N=C2CCCCCN23)cc1`?
Rango dissoc inh: 3%; Rango-impB inh: 1.1%

What do the screens show for `O=C1c2ccccc2C(=O)N1c1cccnc1`?
GLA inh pH 4.5: 4; miR-21 FLuc: -4%; Rango dissoc inh: 2%; Rango-impB inh: 5.5%

How did COC(=O)c1cc(S(=O)(=O)NCC2CCN(Cc3cccc(F)c3)CC2)c[nH]1 do in these assays?
miR-21 FLuc: 4%&1%; Rango dissoc inh: -6%; Rango-impB inh: -4.0%

What do the screens show for `CN(C(=O)COC(=O)CNC(=O)c1ccc2ccccc2c1)c1c(N)n(Cc2ccccc2)c(=O)[nH]c1=O`?
miR-21 FLuc: -5%; Rango dissoc inh: 15%; Rango-impB inh: inconclusive

What do the screens show for `CC(NC(=O)COC(=O)c1ccc2c(c1)OCO2)c1ccccc1` (stereo not drawn)?
GLA inh pH 4.5: 5; miR-21 FLuc: -6%; Rango dissoc inh: -1%; Rango-impB inh: -1.8%

What do the screens show for `O=C(Nc1cccc(C(=O)NC2CCCC2)c1)c1ccccc1`?
miR-21 FLuc: -1%; Rango dissoc inh: 29%; Rango-impB inh: -1.5%

Results for CCSc1nnc(CNc2ccc(C)cc2)n1C ?
GLA inh pH 4.5: -2; miR-21 FLuc: -15%; Rango dissoc inh: inconclusive; Rango-impB inh: inconclusive

How did Cc1nn(C(=O)c2cccc([N+](=O)[O-])c2)c(C)c1Sc1ccccc1 do in these assays?
GLA inh pH 4.5: -6; miR-21 FLuc: -4%; Rango dissoc inh: -5%; Rango-impB inh: 0.5%

What do the screens show for `CCC/C(=N\NC(=O)c1csc(C)c1C)c1cccs1`?
GLA inh pH 4.5: 1; miR-21 FLuc: -34%; Rango dissoc inh: 7%; Rango-impB inh: -0.6%

Results for Cc1cnc(C(=O)OCC(=O)c2ccc(F)cc2)cn1 ?
miR-21 FLuc: 3%; Rango dissoc inh: 13%; Rango-impB inh: -0.5%

How did CC(C)(C)CC(=O)N1CCN(c2ccc(S(=O)(=O)N3CCOCC3)cc2[N+](=O)[O-])CC1 do in these assays?
Rango dissoc inh: 6%; Rango-impB inh: 2.9%

Results for Cc1cc(C)n2nc(SCC(=O)c3c(N)n(CC(C)C)c(=O)n(C)c3=O)nc2n1 ?
GLA inh pH 4.5: -1; miR-21 FLuc: -3%; Rango dissoc inh: -6%; Rango-impB inh: -0.4%

Results for CCCc1nc2cc(Cl)c([N+](=O)[O-])cc2o1 ?
GLA inh pH 4.5: 16; miR-21 FLuc: 2%; Rango dissoc inh: 2%; Rango-impB inh: 2.9%

How did CCN1CCN(C(=O)C2CCN(C(=O)Nc3ccccc3)CC2)CC1 do in these assays?
Rango dissoc inh: -4%; Rango-impB inh: 2.0%

What do the screens show for `O=C(CSc1nccn1-c1cccc(Cl)c1)NO`?
GLA inh pH 4.5: 8; miR-21 FLuc: -11%; Rango dissoc inh: 0%; Rango-impB inh: -5.1%

How did O=C(N/N=C/c1c(O)ccc2ccccc12)c1ccc(Br)o1 do in these assays?
miR-21 FLuc: 17%; Rango dissoc inh: inconclusive; Rango-impB inh: inconclusive

What do the screens show for `C/C=C/C(=O)OCC(=O)Nc1ccc(OC)c(Cl)c1`?
GLA inh pH 4.5: -10; miR-21 FLuc: 2%; Rango dissoc inh: 6%; Rango-impB inh: -1.7%

Results for NC(=O)c1c[nH]c2ccccc12 ?
miR-21 FLuc: -39%; Rango dissoc inh: -8%; Rango-impB inh: 0.8%

How did O=C(O)COc1ccccc1/C=N/NC(=O)CSc1nnc(SCc2ccccc2)s1 do in these assays?
GLA inh pH 4.5: -2; miR-21 FLuc: 0%; Rango dissoc inh: -2%; Rango-impB inh: 0.9%

How did CCOC(=O)c1[nH]cnc1C(=O)NCc1ccccc1 do in these assays?
GLA inh pH 4.5: -5; miR-21 FLuc: 0%; Rango dissoc inh: 9%; Rango-impB inh: -0.6%

Results for CCOC(=O)CN1CC23C=CC(O2)C(C(=O)NC2CCCC2)C3C1=O (stereo not drawn) ?
GLA inh pH 4.5: 1; miR-21 FLuc: -5%; Rango dissoc inh: -4%; Rango-impB inh: 6.7%

Results for COC(=O)CC1(C(=O)OC)Oc2ccc(Br)cc2C(=O)N1c1ccc(Br)cc1Cl (stereo not drawn) ?
GLA inh pH 4.5: -16; miR-21 FLuc: 28%; Rango dissoc inh: -1%; Rango-impB inh: -0.1%

What do the screens show for `CCOc1cc(-c2noc(N)c2C(=O)OC)cc(OCC)c1OCC`?
GLA inh pH 4.5: 8; miR-21 FLuc: 7%; Rango dissoc inh: 18%; Rango-impB inh: -1.4%

How did Cc1ccc(NC(=O)c2ncn(CC(=O)NCc3ccc4[nH]ccc4c3)n2)cc1C do in these assays?
Rango dissoc inh: -13%; Rango-impB inh: 4.7%

What do the screens show for `Cn1c(/N=C/c2cc(Cl)ccc2O)nc2ccccc21`?
GLA inh pH 4.5: -3; miR-21 FLuc: -1%; Rango dissoc inh: -15%; Rango-impB inh: -1.5%

What do the screens show for `CCOC(=O)C1(Cc2ccccc2)CCCN(Cc2ccncc2)C1` (stereo not drawn)?
GLA inh pH 4.5: -2; miR-21 FLuc: 0%; Rango dissoc inh: -4%; Rango-impB inh: -1.8%

How did CCNC(=O)COC(=O)/C=C/c1cccc([N+](=O)[O-])c1 do in these assays?
GLA inh pH 4.5: 6; miR-21 FLuc: 1%; Rango dissoc inh: 9%; Rango-impB inh: 4.9%

What do the screens show for `CC(=O)Oc1ccc(C)cc1N1C(=O)c2ccc(C(=O)O)cc2C1=O`?
GLA inh pH 4.5: 3; miR-21 FLuc: -1%; Rango dissoc inh: 1%; Rango-impB inh: -1.1%

Results for Cc1ccccc1NC(=O)/C=C/c1ccc([N+](=O)[O-])s1 ?
GLA inh pH 4.5: 1; miR-21 FLuc: inconclusive; Rango dissoc inh: 0.65µM*; Rango-impB inh: inconclusive

What do the screens show for `O=C1CC(C(=O)Nc2ccc(F)cc2)S/C(=N\N=C\c2ccco2)N1` (stereo not drawn)?
GLA inh pH 4.5: 4; miR-21 FLuc: 4%; Rango dissoc inh: 1%; Rango-impB inh: -2.5%

Results for C=C(C)COc1ccc(-c2n[nH]c(C)c2-c2ccc(OC)cc2)c(O)c1 ?
GLA inh pH 4.5: -1; miR-21 FLuc: inconclusive; Rango dissoc inh: 0%; Rango-impB inh: inconclusive

Results for O=C(CCNS(=O)(=O)c1cccc2nsnc12)NCc1cccs1 ?
GLA inh pH 4.5: 1; miR-21 FLuc: -7%; Rango dissoc inh: -7%; Rango-impB inh: 4.5%

How did Cc1cc(C)nc(SCc2ccc(C(=O)NN=C3C4CC5CC(C4)CC3C5)cc2)n1 do in these assays?
GLA inh pH 4.5: -1; miR-21 FLuc: -6%; Rango dissoc inh: -13%; Rango-impB inh: -0.1%

What do the screens show for `O=C(COc1cccnc1[N+](=O)[O-])N1CCN(C(=O)c2ccco2)CC1`?
GLA inh pH 4.5: 9; miR-21 FLuc: 5%; Rango dissoc inh: 8%; Rango-impB inh: -2.1%

How did CCCc1cc(=O)oc2c(C)c(OCC(=O)N3C[C@H]4C[C@@H](C3)c3cccc(=O)n3C4)ccc12 do in these assays?
miR-21 FLuc: -7%; Rango dissoc inh: 3%; Rango-impB inh: 1.2%

This is a subset (hit frequency here may not be typical).
